Source: PubChem (Johns Hopkins Ion Channel Center)
KCNQ2 inh – KCNQ2 potassium channel inhibitors, primary screen, cell-based, CHO-K1, FluxOR thallium flux, B-score (AID 2156) | 20 min; stronger effect = lower value; only compounds with negative scores are shown here; some inactives read as strong as hits | B-score at 10 µM | 1.1% of 310,000 active;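 active means fluorescence ratio B-score at most minus 3 library SDs, with starting brightness B-score within 2 library SDs, cut at about -5.5 in these data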
Target sequence (O88943 whole entry, looked up): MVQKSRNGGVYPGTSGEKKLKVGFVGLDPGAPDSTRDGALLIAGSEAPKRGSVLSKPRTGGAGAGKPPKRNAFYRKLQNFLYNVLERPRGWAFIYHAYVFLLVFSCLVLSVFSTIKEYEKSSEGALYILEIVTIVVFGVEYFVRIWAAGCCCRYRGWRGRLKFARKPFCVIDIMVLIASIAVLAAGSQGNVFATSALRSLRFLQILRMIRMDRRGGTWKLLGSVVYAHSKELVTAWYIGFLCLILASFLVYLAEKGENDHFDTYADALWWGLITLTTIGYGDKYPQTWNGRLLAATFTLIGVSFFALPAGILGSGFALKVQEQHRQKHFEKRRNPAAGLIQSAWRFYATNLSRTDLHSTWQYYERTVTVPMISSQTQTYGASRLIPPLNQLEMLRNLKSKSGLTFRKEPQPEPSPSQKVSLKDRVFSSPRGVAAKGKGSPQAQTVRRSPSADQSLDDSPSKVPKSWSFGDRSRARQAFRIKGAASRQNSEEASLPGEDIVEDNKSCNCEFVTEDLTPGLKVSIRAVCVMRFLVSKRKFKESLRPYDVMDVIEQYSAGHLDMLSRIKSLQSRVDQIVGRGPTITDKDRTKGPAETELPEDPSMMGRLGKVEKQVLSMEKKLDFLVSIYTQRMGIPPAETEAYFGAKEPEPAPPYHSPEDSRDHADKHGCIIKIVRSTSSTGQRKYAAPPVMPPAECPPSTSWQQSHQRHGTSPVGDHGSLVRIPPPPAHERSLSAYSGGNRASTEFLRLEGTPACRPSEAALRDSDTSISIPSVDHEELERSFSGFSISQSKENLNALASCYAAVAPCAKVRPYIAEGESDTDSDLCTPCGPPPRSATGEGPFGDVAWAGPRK
KCNQ2 inh baseline – further read-out of KCNQ2 inh, marked with its call; B-score; measured here: initial fluorescence intensity artifact check;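 brightness before thallium and not channel activity; 0 = typical well and far values either way flag optical interference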
* hit, by the source's call.

CCOc1ccc(CN(C)C(=O)CCN2C(=O)c3ccccc3C2=O)cc1OC was read as KCNQ2 inh inactive and KCNQ2 inh baseline 1.41.
For CC1=C(C(=O)Nc2ccccc2)C(c2ccncc2)C(C#N)=C(SCC(=O)NC2CC2)N1 (stereo unspecified) the results were KCNQ2 inh inactive and KCNQ2 inh baseline -0.3.
`COc1ccc(CCNS(=O)(=O)c2ccc(-n3cnnn3)cc2)cc1OC` gave KCNQ2 inh inactive and KCNQ2 inh baseline 0.52.
COc1ccc(Cn2nnnc2C(c2ccc3ncccc3c2)N2CCN(C3CCCCC3)CC2)cc1 (stereo unspecified) was read as KCNQ2 inh inactive and KCNQ2 inh baseline 0.3.
O=C(CCn1nc(-c2ccc(Cl)cc2)ccc1=O)NCCCN1CCCCCC1 was read as KCNQ2 inh inactive and KCNQ2 inh baseline 0.27.
For C/C(=N\NC(=S)NC(C)C)c1ccc(C(C)(C)C)cc1 the results were KCNQ2 inh inactive and KCNQ2 inh baseline 2.57.
For C[N+](C)(CCOc1ccccc1)Cc1ccccc1 (tested in a mixture with another compound) the results were KCNQ2 inh inactive and KCNQ2 inh baseline 0.26.
Screening CN(C)S(=O)(=O)c1ccc(Cl)c(NC(=O)CN2C(=O)NC(C)(C3CC3)C2=O)c1 (stereo unspecified) returned KCNQ2 inh inactive and KCNQ2 inh baseline -0.34.
COc1cccc(CN2CCNC(=O)C2CC(=O)NCCc2cccc(C)n2)c1OC (stereo unspecified) was read as KCNQ2 inh inactive and KCNQ2 inh baseline 0.06.
For CCC(C)[C@H]1COCCS(=O)(=O)N1Cc1ccc(Br)cc1 (stereo partly specified) the results were KCNQ2 inh inactive and KCNQ2 inh baseline -0.01.
O=C(CSCc1ccc(Br)cc1)NC1CC1 was read as KCNQ2 inh inactive and KCNQ2 inh baseline 0.58.
Cn1c(N)c(C(=O)COC(=O)c2ncc(Cl)c(Cl)c2Cl)c(=O)n(C)c1=O was read as KCNQ2 inh inactive and KCNQ2 inh baseline -1.33.
CC(C)CCN(C(=O)CNC(=O)c1ccco1)C(C(=O)NC1CCCCC1)c1ccco1 (stereo unspecified) was read as KCNQ2 inh inactive and KCNQ2 inh baseline -0.49.
For O=C1C2ON(c3ccccc3)C(c3cccnc3)C2C(=O)N1Cc1ccccc1 (stereo unspecified) the results were KCNQ2 inh inactive and KCNQ2 inh baseline -0.55.
Screening O=C(N1CCOCC1)C1(c2ccc(Cl)cc2)CCCC1 returned KCNQ2 inh inactive and KCNQ2 inh baseline -0.46.
For CC(C)NS(=O)(=O)c1ccc(OCC(=O)Nc2cccc(F)c2)cc1 the results were KCNQ2 inh inactive and KCNQ2 inh baseline -0.49.
For CC(=O)NNc1nc(-c2ccc(NC(C)=O)cc2)cs1 the results were KCNQ2 inh inactive and KCNQ2 inh baseline 1.04.
O=S(=O)(c1ccccc1F)N(Cc1ccco1)Cc1nnc(-c2ccccc2Br)o1 was read as KCNQ2 inh inactive and KCNQ2 inh baseline -1.06.
CCn1c(SCc2c(F)cccc2Cl)nnc1-c1ccco1 was read as KCNQ2 inh inactive and KCNQ2 inh baseline -3.68.
`Cc1ccc(/C=N/Nc2ccc(C(=O)O)cc2)s1` gave KCNQ2 inh inactive and KCNQ2 inh baseline 0.5.
`Cn1c(SCC(=O)O)nc2sc3c(c2c1=O)CCC3` gave KCNQ2 inh inactive and KCNQ2 inh baseline 2.83.
`CCOC(=O)CSc1cc(CS(=O)c2ccc(Cl)cc2)nc(-c2ccccc2)n1` (stereo unspecified) gave KCNQ2 inh inactive and KCNQ2 inh baseline 0.56.
`O=C1N=c2ccccc2=C1c1sc(Nc2cccc(O)c2)nc1O` gave KCNQ2 inh inactive and KCNQ2 inh baseline 1.72.
Screening Cc1cccc(OCC(=O)Nc2ccc(S(=O)(=O)Nc3ccccn3)cc2)c1 returned KCNQ2 inh inactive and KCNQ2 inh baseline -1.51.
COc1cc(C2C(C(C)=O)=C(O)C(=O)N2CCN(C)C)ccc1O (stereo unspecified) was read as KCNQ2 inh inactive and KCNQ2 inh baseline 0.2.
Screening Cc1ccc(SCC2CNc3nc4ccccc4c(=O)n32)c(C)c1 (stereo unspecified) returned KCNQ2 inh inactive and KCNQ2 inh baseline 2.4.
For Cc1ccccc1C(=O)Nc1ccnn1C1CCN(C(=O)C2CCOC2)CC1 (stereo unspecified) the results were KCNQ2 inh inactive and KCNQ2 inh baseline -1.7.
For COc1ccc(-c2c(S(=O)(=O)c3ccccc3)cnn2-c2ccccc2)cc1 the results were KCNQ2 inh inactive and KCNQ2 inh baseline -0.83.
CCN(CC)C(=O)CSc1nc2cc(OC)c(OC)cc2c(=O)n1Cc1ccc(Cl)cc1 was read as KCNQ2 inh inactive and KCNQ2 inh baseline -1.55.
CCCCN1C(=O)/C(=c2\sc3nc(=O)c(-c4ccccc4)nn3c2=O)c2ccccc21 was read as KCNQ2 inh inactive and KCNQ2 inh baseline 0.26.
Screening COC(=O)c1cccc(C23CC4(C2)[C@H](CN(Cc2ccc(C(F)(F)F)cc2)[C@@H]4c2ccccc2)C3c2ccccc2)c1 (stereo partly specified) returned KCNQ2 inh inactive and KCNQ2 inh baseline -1.33.
Cn1c(SCc2nc3ccccc3[nH]2)nnc1-c1ccccn1 was read as KCNQ2 inh inactive and KCNQ2 inh baseline 0.84.
`CN(Cc1ccccc1)Cc1nc2c(c(=O)n(C)c(=O)n2C)n1CCCc1ccccc1` gave KCNQ2 inh inactive and KCNQ2 inh baseline -0.7.
COc1ccc2cc(C(=O)N3CCN(c4cccc(C)c4C)CC3)[nH]c2c1 was read as KCNQ2 inh -6.22* and KCNQ2 inh baseline 0.37*.
Screening COC(=O)c1cn(NC(=O)Cn2nc([N+](=O)[O-])c(Cl)c2C)c(=O)c2ccccc12 returned KCNQ2 inh inactive and KCNQ2 inh baseline 3.96.
`COc1ccc(Cl)cc1NC(=O)CN(C)C(=O)c1ccc(COc2ccccc2)cc1` gave KCNQ2 inh inactive and KCNQ2 inh baseline 1.49.
CCc1ccc(-n2nc3cc(C)c(N)cc3n2)cc1 was read as KCNQ2 inh inactive and KCNQ2 inh baseline 0.05.
`Cc1ccccc1OCCn1c(=O)oc2ccccc21` gave KCNQ2 inh inactive and KCNQ2 inh baseline -0.14.
Cc1ccc(Nc2c(-c3ccccc3O)nc3ncccn23)cc1 was read as KCNQ2 inh inactive and KCNQ2 inh baseline 0.59.
For Cn1ccnc1C(=O)c1cc(SCC(=O)NCc2ccccc2)nc2ccccc12 the results were KCNQ2 inh inactive and KCNQ2 inh baseline -1.86.
`CC(C)c1ccc(NC2CCCN(C(=O)CCN3Cc4ccccc4C3=O)C2)cc1` (stereo unspecified) gave KCNQ2 inh inactive and KCNQ2 inh baseline 0.24.
Screening O=C(CN(CC1CCCO1)C(=O)CCC(=O)Nc1nccs1)NCc1ccc2c(c1)OCO2 (stereo unspecified) returned KCNQ2 inh inactive and KCNQ2 inh baseline 0.92.
For O=C(COc1ccc(Br)cc1CNC1CCCCC1)NCCc1ccccc1 the results were KCNQ2 inh inactive and KCNQ2 inh baseline -0.33.
For Cc1ccc(OCC(=O)N2CCN(C(=O)c3ccc([N+](=O)[O-])cc3)CC2)cc1 the results were KCNQ2 inh inactive and KCNQ2 inh baseline -3.5.
Cc1nnc(SCC(=O)NC2CCCCC2)[nH]c1=O was read as KCNQ2 inh inactive and KCNQ2 inh baseline -2.1.

Taken from the entries so far (5 entries):
Screening COC(=O)c1cccc(C23CC4(C2)[C@H](CN(Cc2ccc(C(F)(F)F)cc2)[C@@H]4c2ccccc2)C3c2ccccc2)c1 (stereo partly specified) returned KCNQ2 inh inactive and KCNQ2 inh baseline -1.33.
Cn1c(SCc2nc3ccccc3[nH]2)nnc1-c1ccccn1 was read as KCNQ2 inh inactive and KCNQ2 inh baseline 0.84.
`CN(Cc1ccccc1)Cc1nc2c(c(=O)n(C)c(=O)n2C)n1CCCc1ccccc1` gave KCNQ2 inh inactive and KCNQ2 inh baseline -0.7.
COc1ccc2cc(C(=O)N3CCN(c4cccc(C)c4C)CC3)[nH]c2c1 was read as KCNQ2 inh -6.22* and KCNQ2 inh baseline 0.37*.
Screening COC(=O)c1cn(NC(=O)Cn2nc([N+](=O)[O-])c(Cl)c2C)c(=O)c2ccccc12 returned KCNQ2 inh inactive and KCNQ2 inh baseline 3.96.

Later entries
`CN1Cc2sc(N)c(C#N)c2CC1(C)C` gave KCNQ2 inh inactive and KCNQ2 inh baseline 3.46.
For Cc1ccc(C(=O)C2=C(O)C(=O)N(Cc3cccnc3)C2c2cccc([N+](=O)[O-])c2)o1 (stereo unspecified) the results were KCNQ2 inh inactive and KCNQ2 inh baseline 0.85.
For CCOC(=O)[C@@H]1[C@H]2COc3cc(OC)ccc3[C@@H]2N2C(=O)N(c3ccc(F)cc3)C(=O)[C@]12C the results were KCNQ2 inh inactive and KCNQ2 inh baseline -0.08.
`NS(=O)(=O)c1ccc(CCNC(=O)c2ccc(=O)[nH]c2)cc1` gave KCNQ2 inh inactive and KCNQ2 inh baseline 3.4.
Screening Cc1cc2ccccc2n1CCNC(=O)COc1ccc2ccccc2c1 returned KCNQ2 inh inactive and KCNQ2 inh baseline -1.03.
CCOc1ccc(NC(=O)Nc2ccc(Br)cn2)cc1 was read as KCNQ2 inh inactive and KCNQ2 inh baseline -0.21.
COC(=O)c1c(NC(=O)CSc2nccn2C)sc(C)c1C was read as KCNQ2 inh inactive and KCNQ2 inh baseline -0.47.
Screening FC(F)Sc1nnc(-c2cccs2)n1-c1ccccc1 returned KCNQ2 inh inactive and KCNQ2 inh baseline -0.45.
For Cc1ccc(C)c(-n2c(SCC(=O)NCC3CCCO3)nnc2-c2ccoc2C)c1 (stereo unspecified) the results were KCNQ2 inh inactive and KCNQ2 inh baseline 0.14.
COc1ccc(CN2C(=O)C(O)(CC(=O)c3ccc4c(c3)OCO4)c3ccccc32)cc1OC (stereo unspecified) was read as KCNQ2 inh inactive and KCNQ2 inh baseline 1.99.
Screening CCN(C(=O)Cc1c(C(=O)O)n(C)c2ccccc12)c1ccc(F)cc1 returned KCNQ2 inh inactive and KCNQ2 inh baseline 0.3.
Screening Cc1nnc(NC(=O)CSc2ccc(-c3ccc(Cl)cc3)nn2)s1 returned KCNQ2 inh inactive and KCNQ2 inh baseline 0.04.
Screening CCN1CCN(S(=O)(=O)c2ccc(Cl)c(C(=O)N(CC)CC(=O)Nc3ccc(OC)cc3)c2)CC1 returned KCNQ2 inh inactive and KCNQ2 inh baseline 1.13.
Screening Cn1c(SCc2cc(=O)[nH]c(C(C)(C)C)n2)nnc1C(F)(F)F returned KCNQ2 inh inactive and KCNQ2 inh baseline -0.92.
Cc1ccc(C)n1-c1ccc(NC(=O)c2ccccc2)cc1 was read as KCNQ2 inh inactive and KCNQ2 inh baseline 0.42.
CCCn1c(N)c(C(=O)CSc2nnc(-c3ccco3)n2Cc2ccccc2)c(=O)[nH]c1=O was read as KCNQ2 inh inactive and KCNQ2 inh baseline -0.32.
Screening Cc1nc2sc(C(c3ccco3)N3CCN(C(c4ccccc4)c4ccccc4)CC3)c(O)n2n1 (stereo unspecified) returned KCNQ2 inh inactive and KCNQ2 inh baseline 2.48.
`Nn1cc(-c2ccccc2)nc1SCC(=O)N1CCN(S(=O)(=O)c2ccccc2)CC1` gave KCNQ2 inh inactive and KCNQ2 inh baseline 2.34.
For COC(=O)C1=C(C)Nc2ccc(C)cc2S1 the results were KCNQ2 inh inactive and KCNQ2 inh baseline -0.06.
For Cc1ccc2nc(CSc3nnc(Nc4ccccc4C)s3)cc(=O)n2c1 the results were KCNQ2 inh inactive and KCNQ2 inh baseline -0.07.
`CC(C)(C)c1cc(C(=O)N/N=C/c2ccc(-c3ccccc3[N+](=O)[O-])o2)n[nH]1` gave KCNQ2 inh inactive and KCNQ2 inh baseline -0.48.
For CCn1cc(/C=C(\NC(=O)c2ccccc2F)C(=O)N2CCCC2)c2ccccc21 the results were KCNQ2 inh inactive and KCNQ2 inh baseline -0.44.
`O=C(O)Cc1sc(Nc2ccc(F)cc2)nc1-c1cccs1` gave KCNQ2 inh inactive and KCNQ2 inh baseline 0.52.
Screening COc1ccc(-c2nc(-c3cccc(C)c3)[nH]c(=O)c2C#N)cc1 returned KCNQ2 inh inactive and KCNQ2 inh baseline 0.71.
CC(=O)N(C(C)=O)c1ncnc2c1c(-c1ccc(Cl)cc1)nn2C(C)(C)C was read as KCNQ2 inh inactive and KCNQ2 inh baseline -1.01.
`COc1ccc(N2CCN(C(=O)c3sc4ncn(CC(=O)N5CCCCC5)c(=O)c4c3C)CC2)cc1` gave KCNQ2 inh inactive and KCNQ2 inh baseline -0.17.
`Cn1c(=O)[nH]c(=O)c2c1nc(CN1CCN(c3cccc(Cl)c3)CC1)n2CCCc1ccccc1` gave KCNQ2 inh inactive and KCNQ2 inh baseline 1.26.
Screening COCC1CCN(C(=O)C2CCC(=O)N(Cc3ccc(Cl)cc3)C2)CC1 (stereo unspecified) returned KCNQ2 inh inactive and KCNQ2 inh baseline 1.06.
`O=C(O)C1CCN(C(=O)c2ccco2)CC1` gave KCNQ2 inh inactive and KCNQ2 inh baseline 1.49.
`OC(CNCC(c1ccco1)N1CCCCC1)c1ccccc1` (stereo unspecified) gave KCNQ2 inh inactive and KCNQ2 inh baseline -0.01.
Screening COc1cc2[nH]c(=S)nc(NCCC(C)C)c2cc1OC returned KCNQ2 inh inactive and KCNQ2 inh baseline -0.01.

In the list so far, these contain a COOH group.
`Cc1ccc(/C=N/Nc2ccc(C(=O)O)cc2)s1` gave KCNQ2 inh inactive and KCNQ2 inh baseline 0.5.
`Cn1c(SCC(=O)O)nc2sc3c(c2c1=O)CCC3` gave KCNQ2 inh inactive and KCNQ2 inh baseline 2.83.
Screening CCN(C(=O)Cc1c(C(=O)O)n(C)c2ccccc12)c1ccc(F)cc1 returned KCNQ2 inh inactive and KCNQ2 inh baseline 0.3.
`O=C(O)Cc1sc(Nc2ccc(F)cc2)nc1-c1cccs1` gave KCNQ2 inh inactive and KCNQ2 inh baseline 0.52.
`O=C(O)C1CCN(C(=O)c2ccco2)CC1` gave KCNQ2 inh inactive and KCNQ2 inh baseline 1.49.

A portion of the library (hit frequency here may not be typical).
